TRPV1 potentiator – HTS Assay for Compounds that Act as Potentiators of the Vanilloid Receptor 1. Transient receptor potential cation channel subfamily V member 1 (Homo sapiens), Q8NER1. TRPV1-expressing cells, Fluo-8 calcium influx, capsaicin EC20 potentiation; host cell line not named in the record; control for the full effect not named in the record. potentiation, % at 8.33 µM. 0.02% of 320,000 active; active means potentiation above 80%; inconclusive means 30% to 80%; inactive means below 30%; also: 0% is about no effect
Target sequence (Q8NER1 whole entry, looked up): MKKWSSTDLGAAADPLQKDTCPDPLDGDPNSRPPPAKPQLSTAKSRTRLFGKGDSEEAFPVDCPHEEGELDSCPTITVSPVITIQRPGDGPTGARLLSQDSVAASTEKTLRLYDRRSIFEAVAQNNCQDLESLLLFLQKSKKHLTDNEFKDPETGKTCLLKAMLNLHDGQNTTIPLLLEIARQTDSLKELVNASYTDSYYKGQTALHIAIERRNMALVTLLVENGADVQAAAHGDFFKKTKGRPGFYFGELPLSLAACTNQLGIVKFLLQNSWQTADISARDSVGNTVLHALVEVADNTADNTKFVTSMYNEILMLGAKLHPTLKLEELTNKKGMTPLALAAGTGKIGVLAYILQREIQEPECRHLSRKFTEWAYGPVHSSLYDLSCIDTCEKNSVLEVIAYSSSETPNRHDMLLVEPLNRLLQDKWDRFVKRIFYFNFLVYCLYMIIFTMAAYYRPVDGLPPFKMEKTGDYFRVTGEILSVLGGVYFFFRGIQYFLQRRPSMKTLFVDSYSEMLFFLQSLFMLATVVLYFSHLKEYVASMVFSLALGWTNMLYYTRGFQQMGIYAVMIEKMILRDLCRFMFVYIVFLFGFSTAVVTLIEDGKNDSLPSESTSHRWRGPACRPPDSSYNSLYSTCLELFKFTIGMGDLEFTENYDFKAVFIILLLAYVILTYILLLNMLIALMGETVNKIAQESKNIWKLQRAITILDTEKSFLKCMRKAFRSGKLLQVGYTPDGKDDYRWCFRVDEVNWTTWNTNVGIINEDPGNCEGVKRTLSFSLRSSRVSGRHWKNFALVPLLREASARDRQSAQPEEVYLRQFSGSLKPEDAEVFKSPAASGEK
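TRPV1-expressing cells were cultured overnight at 35.5C and loaded with Fluo-8 calcium dye for 40 to 90 min at room temperature. After a 10 s baseline, compound was added and calcium influx was read kinetically for 3 min (ex 480/em 520 nm).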
Menin-MLL FL inh – qHTS Assay for Inhibitors Targeting the Menin-MLL Interaction in MLL Related Leukemias: Competition With Fluorescein Labeled MLL-derived Peptide | 290,000 tested, under 10 active | FP activity change, % at 61.4 µM | Fluorescence polarization, fluorescein-MLL peptide displacement from menin; inconclusive = falling polarisation curve, or a change in total fluorescence; inactive = total fluorescence flat and polarisation flat or rising; no compound was filed as active; the % refers to the polarisation; negative = inhibition;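 also: % of control where 0% means no effect; inhibitors lower the polarisation; unlabelled MLL peptide was the positive control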
PINK1 modulator – A Quantitative High throughput Screen to Identify Chemical Modulators of PINK1 Expression; PINK1 immunofluorescence, high-content cytometry, 24 h; Potency, µM (titrated, usually from 76.6 µM), inactives show at the highest dose activation (PINK1 increase), most hits filed as activators; 0.2% of 410,000 active; AID 624263, 2012; active = well fitted activation curve with a large enough effect; inconclusive = small, poorly fitted or top-dose-only effect; inactive = flat fitted curve, though single readings scatter; cell line not stated here;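 also: potency is read from the fitted curve at half-maximal effect; % of control where 0% means no effect; nearly all actives have a fitted effect of over 65% in size; a mitochondrial uncoupler was the plate control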
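A stable cell line was treated with compounds at 5 concentrations for 24 hours, with CCCP as control. PINK1 levels and mitochondrial localization were measured by immunofluorescence with mitochondrial, cell and nuclear markers after fixation, read by laser-scanning cytometry.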
TRPML1 ag – qHTS for Agonists of the Human Mucolipin Transient Receptor Potential 1 (TRPML1). Mucolipin-1 (Homo sapiens), Q9GZU1. TRPML1-expressing cells, Ca2+ dye fluorescence, FDSS; host cell line not named in the record; reference of the full effect not given here. activation, % (test concentration not listed). 0.12% of 410,000 active. AID 624414, 2012; in the data active = activation above about 50%; inconclusive = about 30% to 50%; inactive = below about 30%; also: 0% is about no effect; the text of the record puts the active cut at 80%
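Cells: TRPML1-DL, 1X Tet inducer, ~16 h at 37 degrees C/5% CO2. Dye: ABD Ca8 no-wash + quencher, 45-90 min RT. Read: 10 s baseline, compound add, 110 s agonist phase; 54-4 EC80 (4uM final), 110 s antagonist phase.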
Sfp PPTase inh – qHTS Assay for Inhibitors of Bacillus subtilis Sfp phosphopantetheinyl transferase (PPTase) | Biochemical Sfp PPTase activity, qHTS | Potency, µM, for the others: max response, negative = inhibition, actives largely listed as inhibitors | 3.5% of 310,000 active | AID 1490, 2009; active = well fitted inhibition curve with a large enough effect; inconclusive = small, poorly fitted or top-dose-only effect, or another doubt; inactive = no such curve, though single readings can be large or run the other way;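 also: the enzyme is Sfp with the accession as filed and its product quenches rhodamine fluorescence; potency is read from the fitted curve at half-maximal effect; 0% = enzyme reaction without inhibitor and -100% = no enzyme wells; top concentration of the series not given in the record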
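Fluorescence-quenching assay with 15 nM Sfp, 5 uM rhodamine-CoA and 12.5 uM BHQ-2-labelled ybbR peptide in pH 7.6 Hepes/MgCl2 buffer. Enzyme was pre-incubated with compound for 15 min at room temperature. Rate was taken from the 30-min fluorescence change (525/598 nm).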
ClpP mod – qHTS Assay for Activators of ClpP; AID 651965, 2013; 1.9% of 340,000 active; Potency, µM (titrated, usually from 57.5 µM), for the others: at the top dose activity change, negative = active; purified B. subtilis ClpP, FRET peptide cleavage, 20 min; active = well fitted falling curve with a large enough effect; inconclusive = small, poorly fitted or top-dose-only effect; inactive = no such curve, though single readings can be large or run the other way; also: potency is read from the fitted curve at half-maximal effect; the source files actives as falling curves though it sought activators and does not explain the sign; nearly all actives have a fitted effect of over 65% in size; many hits overshoot -100%
Target sequence (P80244 whole entry, looked up): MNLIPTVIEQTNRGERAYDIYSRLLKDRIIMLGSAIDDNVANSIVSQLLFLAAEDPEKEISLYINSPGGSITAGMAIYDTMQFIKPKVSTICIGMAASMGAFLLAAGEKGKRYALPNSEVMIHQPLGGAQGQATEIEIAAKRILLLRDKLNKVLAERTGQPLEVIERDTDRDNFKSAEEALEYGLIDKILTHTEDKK
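Purified B. subtilis ClpP, 10 microg/mL final in Tris/HCl pH8 with KCl, BSA, glycerol and Tween-20, cleaved an Abz/nitrotyrosine-quenched decapeptide. Fluorescence (ex 320, em 430) was read at 0 and 20 min at room temperature. Delta was normalized to 5.8 microM ADEP and DMSO/no-enzyme controls.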
TRPML1 inh – qHTS for Inhibitors of the Human Mucolipin Transient Receptor Potential 1 (TRPML1); TRPML1-inducible cells, Ca2+ dye fluorescence, FDSS; hits give low values; inhibition of EC80 agonist-evoked calcium signal; AID 624415, 2012; 0.02% of 390,000 active; activity change, negative = inhibition, % (concentration not given with the values); Mucolipin-1 (Homo sapiens), Q9GZU1; in the data active means activity change below about -50%; inconclusive means about -30% to -50%; inactive means above about -30%;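 also: stimulus is agonist 54-4 at its EC80 concentration; % is scaled to controls: 0 for no effect and ±100 for the full control effect; compound concentration not given in the record; the text of the record puts the active cut at -80%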
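Tet-induced TRPML1-DL cells loaded with Ca8 no-wash calcium dye were read kinetically on FDSS. Compound addition was followed by EC80 agonist 54-4 (4 uM final); inhibition was read over 110 s.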
* hit, by the source's call; u = inconclusive; x = not tested or not shown; [ ] = remark or other dose.

SMILES	TRPV1 potentiator	Menin-MLL FL inh	PINK1 modulator	TRPML1 ag	Sfp PPTase inh	ClpP mod	TRPML1 inh
N#Cc1ccc(OCC(=O)Nc2ccncc2)cc1	-7	0.0	1.2%	-0.1	-24%	x	-4
Cc1onc(-c2c(Cl)cccc2Cl)c1C(=O)N1CCN(Cc2ccccc2)CC1	15	-3.4	1.0%	1.3	17%	x	2
CCOC(=O)c1n[nH]n2c1nc(=O)c1ccccc12	6	7.2	0.5%	-0.7	9%	x	6
CC1CCc2cc(F)ccc2N1C(=O)CCC(=O)O (configuration not stated)	7	1.1	2.3%	-0.3	11%	0.6%	-8
CCOC(=O)c1sc(NC(=S)NC(=O)C2CC2)cc1C	-7	-5.1	u	0.1	-3%	2.0%	-12
CC1CCN(C(=O)CCN2C(=O)C3C4C=CC(C4)C3C2=O)CC1 (configuration not stated)	-8	0.7	0.6%	0.4	20%	1.1%	-10
COc1ccc2nccc(C(N)=O)c2c1	-7	2.7	-0.8%	0.1	15%	3.0%	15
COc1ccc(CCNC(=O)C2CCCN(S(=O)(=O)c3cnc[nH]3)C2)cc1OC (configuration not stated)	-5	2.9	3.3%	-0.7	16%	2.1%	-9
COc1ccc(C(=O)NCc2oc(-c3ccccc3)cc2C(=O)O)cc1	-6	-0.3	-1.3%	-0.8	25µM*	-2.7%	-4
O=C1CN(C(=O)CSc2nncs2)c2ccccc2N1	7	0.6	-0.8%	-0.4	1%	x	9
CN(c1ccc(OCC(=O)OCC(=O)Nc2ccccc2)cc1)S(=O)(=O)c1cccs1	2	3.1	-1.2%	0.1	36%[activator]	0.3%	-6
CC1(C)CC(=Cc2cc(O)ccc2[N+](=O)[O-])C(=O)c2ccccc21	x	x	20µM*	1.1	x	-1.2%	2
Cc1ccccc1S(=O)Cc1ccc(C(=O)NC2CC2)o1 (configuration not stated)	-12	x	3.0%	3.9	17%	1.9%	0
O=[N+]([O-])c1cccc(C(=Nc2ccc(Cl)cc2)NO)c1	10	2.6	3.1%	2.4	5%	1.6%	7
O=C(CCCSc1nnc(-c2cccs2)n1CC1CCCO1)c1ccccc1 (configuration not stated)	-12	-1.7	0.0%	0.0	-13%	-7.5%	-9
COc1ccccc1NC(=O)C1=C(C)NC(=O)NC1c1cccs1 (configuration not stated)	-4	-2.3	-0.6%	-0.1	19%	x	-18
COCCCn1cc(C(=O)c2ccccc2OCC(=O)Nc2cccc(F)c2)cc(C#N)c1=O	-10	6.2	0.3%	-0.7	5%	x	-23
CC(=O)c1cc(-c2ccccc2)n(CC(=O)Nc2cccc(C)c2)c1C	12	-0.4	4.7%	0.8	-7%	-0.7%	-20
C[C@H](NC(=O)N1CCn2c1nc1ccccc12)C(=O)NCC1CCCO1 (some centres not stated)	11	x	-1.1%	-0.9	-9%	0.6%	46
COc1ccc(-c2nc(CSCC(=O)N3CCN(c4ccc(OC)cc4)CC3)c(C)o2)cc1	x	x	1.2%	0.8	x	-0.2%	-13
Cc1cccc(NC(=O)CS(=O)(=O)c2c[nH]c3ccccc23)c1C	9	-0.3	-1.5%	4.1	-4%	-2.3%	10
Clc1ccc(-c2nnc(-c3ccco3)o2)cc1	-17	2.6	-2.0%[38.3 µM]	0.5	4%	11%	-9
Cc1ccc(C)c(OCCC(=O)OCC(=O)NCCc2ccc(S(N)(=O)=O)cc2)c1	2	x	0.2%	-0.2	x	1.4%	-4
O=C(NCc1ccc(-c2nc3ccccc3s2)cc1)c1ccco1	u	-1.7	-0.5%	1.3	-16%	-10%	-3
CCOc1ccc2[nH]c(=O)c(CN(CC3COCCO3)C(=O)c3ccc(C)cc3)cc2c1 (configuration not stated)	-2	3.7	-0.8%	-0.2	7%	4.2%	-7

One compound at a time (already shown).
`CN(c1ccc(OCC(=O)OCC(=O)Nc2ccccc2)cc1)S(=O)(=O)c1cccs1` is listed with TRPV1 potentiator = 2; Menin-MLL FL inh = 3.1; PINK1 modulator = -1.2%; TRPML1 ag = 0.1; Sfp PPTase inh = 36%[activator]; ClpP mod = 0.3%; TRPML1 inh = -6
`O=[N+]([O-])c1cccc(C(=Nc2ccc(Cl)cc2)NO)c1` is listed with TRPV1 potentiator = 10; Menin-MLL FL inh = 2.6; PINK1 modulator = 3.1%; TRPML1 ag = 2.4; Sfp PPTase inh = 5%; ClpP mod = 1.6%; TRPML1 inh = 7

Continuation.
SMILES	TRPV1 potentiator	Menin-MLL FL inh	PINK1 modulator	TRPML1 ag	Sfp PPTase inh	ClpP mod	TRPML1 inh
O=C(Nc1ccc(Sc2ccc(Br)cc2)cc1)c1ccco1	2	17	2.7%	-0.3	0%	9.4%	13
COC(=O)COc1ccc2c(c1)O/C(=C\c1cccc([N+](=O)[O-])c1)C2=O	u	-3.0	8.4%	-0.1	3%	0.6%	6
CCn1c(C(=O)N2CCCC(C(=O)O)C2)cc2sccc21 (configuration not stated)	5	-2.1	2.1%	-0.4	9%	-2.5%	-13
Cc1ccc(O)c(/C=N/NC(=O)C2=NNC(c3ccccc3)(c3ccccc3)C2)c1	-8	1.0	x	x	-23%	x	x
CSC1=C(C#N)C2(CCCC2)C(C#N)=C(N)N1	1	0.6	x	x	0%	x	x
C=CCc1ccc(OCC(O)CN2CCCCC2)c(OC)c1 (configuration not stated)	-2	2.5	-0.9%	-0.6	16%	-4.7%	-7
CCCOc1ccc(C(=O)Nc2c(C(=O)c3ccc(C)cc3)oc3ccccc23)cc1	x	x	-0.1%	2.9	x	-4.2%	-2
CCOc1ccc(-n2c(=O)c3sc4ccccc4c3n(Cc3ccc(F)cc3)c2=O)cc1	x	x	0.5%	-0.3	x	-15%	-2
COc1ccc(/C=N/NC(=O)c2nn(C)cc2Br)cc1CSCc1ccco1	-4	x	2.7%	1.1	-9%	-23%	18
CCCCc1nc2sc3c(c2c(=O)[nH]1)CCC3	-8	-1.8	3.6%	0.8	0%	-23%	7
CCn1cnc2cc(NCc3ccc(C)cc3)ccc21	8	-0.3	x	-0.3	-9%	-14%	0
COc1ccc(C(=O)CCC(=O)Nc2cccc(C(C)=O)c2)cc1	x	x	0.2%	0.0	x	-4.8%	-4
CCOC(=O)C1CN(S(=O)(=O)c2ccc(F)cc2)C1	-4	-0.1	-2.4%	-0.1	1%	-1.8%	-9
CCOc1ccc2nc(NC(=O)c3ccccc3)sc2c1	x	x	1.8%	1.1	x	76%	0
Cc1cccnc1C(NC(=O)C1CCN(Cc2ccc(Cl)c(Cl)c2)CC1)c1ccc(Cl)cc1 (configuration not stated)	x	x	11%	-0.5	x	1.0%	x
CCC(=O)NC(c1ccco1)c1cc(Cl)c2cccnc2c1O (configuration not stated)	11	1.0	-1.2%	0.1	11%	x	21
C=CCn1c(SCC(=O)c2ccc(O)c(O)c2)nnc1-c1cccc(Cl)c1	-1	x	4.1%	1.4	x	-5.1%	-3
COCCNc1nc(-c2ccccc2Cl)nc2ccccc12	x	2.0	0.1%	x	14%	x	x
COc1ccc(OC)c(N2C(=NC(=O)C3CCCCC3)SC3CS(=O)(=O)CC32)c1 (configuration not stated)	3	-2.9	1.3%	0.4	1%	-0.2%	18
COc1cc2nc(NC3CCN(Cc4ccccc4)CC3)nc(N3CCCN(C)CC3)c2cc1OC	x	x	-0.7%	-0.3	x	4.1%	x
CN(Cc1cnn(-c2ccccc2)c1)C(=O)C1CCC(=O)N(C2CC2)C1 (configuration not stated)	-6	-1.9	2.3%	0.1	5%	1.5%	1
COC(=O)C1CCN(C(=O)Cc2ccc(Br)cc2)CC1	-11	-1.7	-3.4%	0.7	25%	1.0%	-2
CNC(=O)C1CCCN(c2nnc(C)c3c(C)n(-c4ccccc4)nc23)C1 (configuration not stated)	x	x	1.5%	0.1	x	3.6%	9
CCc1nc2ccc(C(=O)Nc3ccc(C(N)=O)cc3)cn2c1N(C)CCC(C)C	x	x	3.2%	-0.8	x	-0.2%	x
O=C(CCC(=O)c1ccc(F)cc1)OC1CCOC1=O (configuration not stated)	-6	-2.9	1.3%	0.7	2%	-0.9%	-10

(next part)
SMILES	TRPV1 potentiator	Menin-MLL FL inh	PINK1 modulator	TRPML1 ag	Sfp PPTase inh	ClpP mod	TRPML1 inh
Cc1cccc(NC(=O)NCCc2ccc(Cl)cc2)c1	2	-0.4	3.4%	4.0	8%	x	75
COc1cccc(N/C(SCc2cccc([N+](=O)[O-])c2)=C(/C#N)C(=O)NCc2cccs2)c1	13	1.2	2.1%	0.0	8%	0.6%	23
COc1ccccc1Cc1c(C2CCCCC2)nc2cc(C)c(Br)c(C)n12	x	x	14%	29	x	-2.9%	x
O=[N+]([O-])c1cccc(/C=N/Nc2nccnc2Cl)c1	7	-1.5	4.9%[38.3 µM]	0.0	4%	-0.4%	11
Cc1cc(C)n(C(=O)c2ccc(NC(=O)C3COc4ccccc4O3)cc2)n1 (configuration not stated)	-2	1.3	-1.5%	7.9	-2%	35µM*	11
O=C(CCN1CCCO1)NC1CCCc2c1cnn2-c1ccccc1F (configuration not stated)	2	x	-0.4%	-0.1	15%	-0.5%	-4
CCCN1CN(Cc2ccccc2)CNC1=S	-2	-5.2	-1.0%	0.7	-12%	-3.9%	-8
CCNC(=S)N/N=C(\C)c1cccc(OC)c1	-11	-1.2	1.1%	-0.3	u	0.8%	9
CCn1c(CSc2ncccn2)nnc1SCC(=O)N1c2ccccc2CC1C (configuration not stated)	-2	4.7	0.5%[38.3 µM]	1.5	-9%	-0.1%	24
N#Cc1cccc(-c2cc(NCc3cccnc3)ncn2)c1	x	-0.9	-0.1%	x	10%	x	x

Pulled by compound from above (2):
SMILES	TRPV1 potentiator	Menin-MLL FL inh	PINK1 modulator	TRPML1 ag	Sfp PPTase inh	ClpP mod	TRPML1 inh
Cc1cc(C)n(C(=O)c2ccc(NC(=O)C3COc4ccccc4O3)cc2)n1 (configuration not stated)	-2	1.3	-1.5%	7.9	-2%	35µM*	11
CCCN1CN(Cc2ccccc2)CNC1=S	-2	-5.2	-1.0%	0.7	-12%	-3.9%	-8

Screens from PubChem BioAssay.
